TRPV1 PAM – HTS Assay for Compounds that Act as Potentiators of the Vanilloid Receptor 1; actives 0.02% (n = 320,000); potentiation, % at 8.33 µM; TRPV1-expressing cells, Fluo-8 calcium influx, capsaicin EC20 potentiation; host cell line not named in the record; control for the full effect not named in the record; Transient receptor potential cation channel subfamily V member 1 (Homo sapiens), Q8NER1; active means potentiation above 80%; inconclusive means 30% to 80%; inactive means below 30%; also: 0% is about no effect
Target sequence (Q8NER1 whole entry, looked up): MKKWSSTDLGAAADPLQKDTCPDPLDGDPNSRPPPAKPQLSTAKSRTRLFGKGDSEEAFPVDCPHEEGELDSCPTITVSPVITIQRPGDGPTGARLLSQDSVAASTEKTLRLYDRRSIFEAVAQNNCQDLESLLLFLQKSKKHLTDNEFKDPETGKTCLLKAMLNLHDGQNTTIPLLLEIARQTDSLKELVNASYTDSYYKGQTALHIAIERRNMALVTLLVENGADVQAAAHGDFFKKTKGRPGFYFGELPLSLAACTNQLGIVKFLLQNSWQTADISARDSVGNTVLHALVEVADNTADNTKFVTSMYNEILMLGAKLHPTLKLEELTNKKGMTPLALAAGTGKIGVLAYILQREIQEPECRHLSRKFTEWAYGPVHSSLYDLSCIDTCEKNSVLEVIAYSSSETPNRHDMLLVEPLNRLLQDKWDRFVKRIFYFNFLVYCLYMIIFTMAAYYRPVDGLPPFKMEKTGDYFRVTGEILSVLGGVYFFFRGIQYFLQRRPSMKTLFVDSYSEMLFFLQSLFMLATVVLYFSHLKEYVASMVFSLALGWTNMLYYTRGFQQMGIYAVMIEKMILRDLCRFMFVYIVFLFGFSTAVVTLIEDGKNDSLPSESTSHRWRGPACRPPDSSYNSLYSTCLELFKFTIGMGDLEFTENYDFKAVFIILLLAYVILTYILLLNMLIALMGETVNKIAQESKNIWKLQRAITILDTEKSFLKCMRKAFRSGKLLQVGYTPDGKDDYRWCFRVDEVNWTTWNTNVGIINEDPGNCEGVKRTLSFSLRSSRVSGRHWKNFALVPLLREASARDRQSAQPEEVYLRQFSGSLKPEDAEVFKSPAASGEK
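Cells expressing TRPV1 were dye-loaded with Fluo-8 and read kinetically: 10 s baseline, 3 min after compound (agonist portion), then 2 min after EC20 capsaicin (allosteric enhancer portion). Calcium-bound dye fluorescence at 480/520 nm.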
CtBP-E1A blk – qHTS Assay for Inhibitors of the CtBP/E1A Interaction | CtBP / adenovirus E1A interaction (AlphaScreen) | AlphaScreen GST-E1A/His-CtBP binding, 1536-well; active compounds read low; control for the full effect not named in the record | activity change, % (no concentration beside the values) | actives 0.49% (n = 340,000) | AID 651724, 2012; in the data active means activity change below about -65%; inconclusive means about -30% to -65%; inactive means above about -30%; also: % is scaled to controls: 0 for no effect and ±100 for the full control effect
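AlphaScreen with 125 nM GST-E1A and 125 nM His-CtBP (5X stocks) in Tris pH 8.0, 300 mM NaCl, BSA, Tween 20, TCEP. Compounds preincubated 2 h at 37 deg C, then glutathione donor/nickel acceptor beads added for 1 h at 37 deg C in dark.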
Six1-Eya2 inh – qHTS Assay for Inhibitors of the Six1/Eya2 Interaction. AID 651725, 2012. AlphaScreen GST-Six1/His-Eya2 binding, biochemical; active compounds read low; control for the full effect not named in the record. Homeobox protein SIX1 (Homo sapiens) + Protein phosphatase EYA2 (Homo sapiens), …. activity change, % (test concentration not listed). actives 0.56% (n = 360,000); in the data active = activity change below about -65%; inconclusive = about -30% to -65%; inactive = above about -30%; also: % is scaled to controls: 0 for no effect and ±100 for the full control effect
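GST-Six1 + His-Eya2 (5X stock: 250/500 nM); Tris pH 8.0, 300 mM NaCl, 0.05% BSA, 0.02% Tween 20; GSH donor/Ni acceptor beads; 1 h 37 °C dark; AlphaScreen readout.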
D2 potentiator – Beta-Arrestin HTS for Positive Allosteric Modulators of the Human D2 Dopamine Receptor: Potentiators; D(2) dopamine receptor (Homo sapiens), P14416; DiscoveRx D2 beta-arrestin cells, luminescence, 90 min; 100% = 57 uM dopamine signal; potentiation, % (concentration not given with the values); actives 0.23% (n = 360,000); AID 624464, 2012; active = potentiation of 50% or more; inconclusive = 30% to 50%; inactive = 30% or less;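 also: compound concentration not given in the record; tested on top of an EC20 dose of dopamine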
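D2 cells co-treated with compound plus 50 nM dopamine (EC20) for 90 min at 37 deg C to detect potentiation. Beta-arrestin recruitment was read as enzyme-fragment luminescence after 1 h at ambient temperature. Full response was set by 57 uM dopamine.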
Sfp PPTase inh – qHTS Assay for Inhibitors of Bacillus subtilis Sfp phosphopantetheinyl transferase (PPTase) | Biochemical Sfp PPTase activity, qHTS | 4'-phosphopantetheinyl transferase ffp (Bacillus subtilis), Q9F4F7 | actives 3.5% (n = 310,000) | Potency, µM, for the others: max response, negative = inhibition, usual class: inhibitors; active = well fitted inhibition curve with a large enough effect; inconclusive = small, poorly fitted or top-dose-only effect, or another doubt; inactive = no such curve, though single readings can be large or run the other way;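 also: the enzyme is Sfp with the accession as filed and its product quenches rhodamine fluorescence; potency is read from the fitted curve at half-maximal effect; 0% = enzyme reaction without inhibitor and -100% = no enzyme wells; top concentration of the series not given in the record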
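Fluorescence-quenching assay: 15 nM Sfp-PPTase preincubated 15 min at room temperature with compound, then 5 uM rhodamine-CoA and 12.5 uM BHQ-2-labelled YbbR peptide added. Fluorescence (ex 525/em 598 nm) read at start and after 30 min; difference gives rate.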
D2 ag – Beta-Arrestin HTS for Positive Allosteric Modulators of the Human D2 Dopamine Receptor: Agonists; D(2) dopamine receptor (Homo sapiens), P14416; DiscoveRx PathHunter D2 beta-arrestin, luminescence, 90 min; 100% = 57 uM dopamine signal; activation, % (no concentration beside the values); actives 0.084% (n = 360,000); in the data active = activation above about 40%; inconclusive = about 15% to 40%; inactive = below about 15%; also: compound concentration not given in the record; the text of the record calls up to 30% inactive
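Agonist mode: compounds alone added to overnight-plated D2 PathHunter cells for 90 min at 37 C, with 57 uM final dopamine (EC100) defining full response. Beta-arrestin recruitment detected by chemiluminescent reagent, read after 1 h at ambient temperature.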
PINK1 expr mod – A Quantitative High throughput Screen to Identify Chemical Modulators of PINK1 Expression; PINK1 immunofluorescence, high-content cytometry, 24 h; Potency, µM (titrated, usually from 76.6 µM), for inactives: top-dose activation (PINK1 increase), usual class: activators; actives 0.2% (n = 410,000); active = well fitted activation curve with a large enough effect; inconclusive = small, poorly fitted or top-dose-only effect; inactive = flat fitted curve, though single readings scatter; cell line not stated here;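 also: potency is read from the fitted curve at half-maximal effect; % of control where 0% means no effect; nearly all actives have a fitted effect of over 65% in size; a mitochondrial uncoupler was the plate control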
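Fluorescence from anti-PINK1 antibody, together with nuclear and cell stains, was scanned on a laser-scanning cytometer. Before staining, stable-line cells were incubated 24 hours with compounds at 5 concentrations; primary antibody 12 h at 10 degrees C.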
* hit, by the source's call; u = inconclusive; x = not tested or not shown; & = joins results of further samples; [ ] = dose if it differs, or a comment. Compounds were not picked by outcome. Share with any hit: about 3.7%.

SMILES	TRPV1 PAM	CtBP-E1A blk	Six1-Eya2 inh	D2 potentiator	Sfp PPTase inh	D2 ag	PINK1 expr mod
CCCCn1c(SCC(=O)NCc2ccco2)nc2ccccc2c1=O	1.7	-0.1	-1.2	6.8	8.6%	-0.4	-1.1%
COc1cccc(CN2CCC(n3nccc3NC(=O)C3CC3)CC2)c1	4.0	2.2	7.8	-19.6	20.9%	-3.6	-0.8%
COC(=O)[C@H](C(C)C)n1c(C)c(C(C)=O)c(C(C)=O)c1C	14.6	-2.1	-5.5	5.5	16.1%	-0.5	-0.4%
CC(=Nc1ccc(C)c(C)c1)C1=C(O)CSC1=O	-3.6	-2.6	-5.3	2.2	-23.6%	-2.9	1.8%
CS(=O)(=O)N(CC(=O)N1CCN(c2ccccc2)CC1)C1CCCCC1	0.7	-0.5	-16.8	16.9	17.5%	-2.9	-0.9%
O=C(O)Cn1c(=O)c(-c2ccccc2)nc2ccccc21	9.6	9.4	0.3	-1.6	10.5%	-1.2	-0.4%
CCn1c(=O)c2c3c(sc2n2c(SCc4ccc(F)cc4)nnc12)CCCC3	x	2.6	6.9	-2.2	x	-3.8	0.6%
Cc1nc2ccccc2c(=O)n1Cc1ccc([N+](=O)[O-])cc1	17.9	x	-2.1	28.4	-0.5%	5.6	0.3%
C=C(C)Cn1c(NCCOC)nc2c1c(=O)[nH]c(=O)n2C	8.3	2.4	1.9	-4.6	15.1%	0.9	-0.8%
CC(/C=N/n1c(COc2ccccc2)n[nH]c1=S)=C\c1ccccc1	5.8	-10.3	-17.6	-10.3	-29.4%	1.9	x
COc1ccc(CN(C)C(=O)c2cccc(NS(=O)(=O)c3ccccc3)c2)c(OC)c1	-1.1	-20.8	-1.3	-7.4	-3.8%	-0.1	-0.9%
COc1cccc(C(=O)Nc2nnc(SCC(=O)NC3CC3)s2)c1	-9.6	-1.0	1.8	0.7	15.0%	0.3	-1.0%
COc1cc2c(cc1OC)CN(C(=O)CCNS(=O)(=O)c1ccc(Br)cc1)CC2	20.3	-1.4	-3.4	3.2	x	0.8	-0.3%
CN(C)c1cc(NC(=O)CN2CCOCC2)c2ccccc2n1	-0.1	-19.5	8.9	-5.9	-1.9%	-3.3	-0.4%
N#Cc1ccc(NC(=O)Cn2c3[n+](c4ccc(C(F)(F)F)cc42)CCCCC3)cc1	-2.6	2.6	9.7	-18.3	-14.9%	-4.3	-0.1%
COc1ccc(C2(C(=O)Nc3nncs3)CCCC2)cc1	-4.9	37.4	0.0	-5.4	1.6%	-2.8	1.1%[38.3 µM]
CCN(CC)S(=O)(=O)c1ccc(NCC2COc3ccccc3O2)c([N+](=O)[O-])c1 (stereo unspecified)	-2.8	-18.8	-18.8	-2.8	4.1%	1.8	0.4%
O=C(NC1CC1)c1ccc(CS(=O)c2ccccc2)o1 (stereo unspecified)	-1.1	-8.4	-7.8	-5.2	16.5%	-3.0	0.6%
COc1ccccc1-n1c(CNc2ccc(F)cc2)nnc1SCC(=O)Nc1cc(C)on1	4.2	-4.1	-6.8	-26.6	-0.9%	-1.0	-0.6%
CCOc1ccc(NC(=S)/C(=C(\[O-])c2ccc(C)c([N+](=O)[O-])c2)[n+]2ccccc2)cc1	-9.8	-23.8	-17.0	-11.6	-26.3%	-5.3	5.0%
Cc1cc(C(=O)CSc2n[nH]c(N)n2)c(C)n1-c1ccccc1	-19.1	-23.9	-21.3	0.9	-4.2%	1.1	0.7%[38.3 µM]
CNC(=S)Nn1cnc2ccccc21	-5.0	9.5	3.5	-2.0	2.6%	-1.7	0.4%
CC1=C(C(=O)O)N2C(=O)C(NC(=O)c3nn(C)c(C)c3Cl)C2SC1 (stereo unspecified)	-9.9	5.3	-15.3	-0.8	11.2µM*	-1.0	4.8%
O=c1c2c(nc3cc(-c4ccc(Br)cc4)[nH]n13)CCCC2	-8.4	-27.9	u	-12.5	15.2%	-2.2	1.1%
CCN(CC(=O)NCc1cccs1)C(=O)/C=C/c1ccc(Cl)c(Cl)c1	0.4	-0.3	-6.9	-1.1	x	-3.6	1.0%
CSc1ccccc1NC(=O)Nc1ccc(Cl)cc1	-15.4	-19.5	-1.0	-7.9	-8.3%	0.7	u
O=C(/C=C/c1ccccc1)CC(O)(c1ccccc1)C(F)(F)F (stereo unspecified)	2.0	-1.3	4.2	-11.3	-17.6%	-0.9	x
CN(C(=O)COC(=O)c1ccccc1Cc1ccccc1)c1c(N)n(Cc2ccccc2)c(=O)[nH]c1=O	-2.3	-2.7	16.0	-7.4	x	-0.5	2.7%
Nc1cccc(C(=O)OCC(=O)c2ccccc2)c1	7.9	-10.3	-1.6	-21.4	18.4%	-0.1	-0.2%
COc1ccc(-n2nnnc2/C=C\Nc2ccc(C)cc2)cc1	-9.9	-23.0	-5.5	-6.0	-10.1%	-10.0	1.7%
COc1ccc(C(CC(=O)N2CCCC(C)C2)c2c(O)cc(OC)cc2OC)cc1 (stereo unspecified)	u	-1.8	-23.2	-8.3	-2.4%&-0.5%	-3.0	1.1%
CS(=O)(=O)N(CCc1ccccc1)CC(=O)N1CCCC1	-1.4	7.7	12.5	-6.3	-0.1%	u	0.4%
CC(=O)Nc1cc(-c2ccccc2N(C)C)cn2c(-c3ccccc3)cnc12	x	-25.1	-24.0	-8.9	x	2.0	1.9%
Clc1cccc(Nc2ncnc3c2cnn3-c2ccccc2)c1	8.3	1.1	2.8	-7.1	u	-2.7	-1.3%
COc1ccc(S(=O)(=O)NCC2CCCN(C(=O)c3occc3C)C2)cc1 (stereo unspecified)	8.4	-4.2	-2.1	-7.2	1.0%	-0.4	-1.0%
Cc1ccc(Br)cc1S(=O)(=O)Nc1cccnc1	-2.9	x	4.8	-0.4	17.6%	10.5	-0.5%
CCOc1ccc(NC(=O)CN2C(=O)C(C)SC(C)C2=O)cc1 (stereo unspecified)	-6.5	1.2	1.4	-4.5	-5.2%	-2.1	-0.9%
COc1ccc(NC(=O)COC(=O)C2C3CC4OC(=O)C2C4C3)cc1 (stereo unspecified)	-7.9	10.5	-3.4	-3.0	8.1%	-2.8	0.2%
O=C(NCCc1ccc(Cl)cc1)c1ccc(S(=O)(=O)N2CCCC2)cc1	-4.2	7.1	-0.5	-8.3	x	-3.9	1.9%
O=C1N[C@H](Cc2c[nH]c3ccccc23)COC(=O)[C@H](Cc2ccc(F)cc2)C/C=C\C[C@H]1CC(=O)N(CCO)Cc1ccccc1	x	-8.6	-12.7	-1.9	x	3.4	1.3%
COc1cc(/C=C/C(=O)OCc2cn3cc(Cl)ccc3n2)ccc1O	-8.2	x	-10.4	-11.6	-2.0%	2.3	8.0%
COc1ccccc1CC(=O)c1ccc(OCc2ccccc2)cc1	18.1	50.1	45.9	-5.2	x	-3.7	0.1%
CN(C)S(=O)(=O)Oc1ccc(C(=O)Nc2cccc(C(F)(F)F)c2)cc1	-28.6	4.9	4.9	-2.6	13.2%	0.3	2.2%
COc1cc(F)cc(-c2ccc3c(c2)c(-c2cccs2)c(-c2cc(OC)cc(OC)c2)n3C)c1	-1.0	2.0	1.6	1.1	x	0.6	7.5%
Cc1ccccc1CN1CCC(n2nccc2NC(=O)c2ccc3c(c2)OCO3)CC1	12.6	-3.9	-6.1	-46.7	-5.1%	-8.7	-1.2%
Cc1cc2c(cc1S(=O)(=O)CCC(=O)N1CC(C)CC(C)C1)OCC(=O)N2 (stereo unspecified)	-4.5	-2.7	1.1	-2.1	3.4%	-5.6	-2.4%
Cn1/c(=N/N=C/c2ccccn2)sc2ccccc21	-12.9	-2.7	-2.6	-8.5	-25.0%	-2.4	4.9%
O=C(COc1ccccc1C(=O)Nc1ccccc1)c1ccc(Br)cc1	17.6	5.8	-4.9	-1.6	11.6%	-5.5	6.3%

Printed as active in Sfp PPTase inh (from the list above):
| Molecule | CtBP-E1A blk | Six1-Eya2 inh | D2 potentiator | Sfp PPTase inh | D2 ag | PINK1 expr mod |
| --- | --- | --- | --- | --- | --- | --- |
| CC1=C(C(=O)O)N2C(=O)C(NC(=O)c3nn(C)c(C)c3Cl)C2SC1 (stereo unspecified) | 5.3 | -15.3 | -0.8 | 11.2µM* | -1.0 | 4.8% |

(list continues)
SMILES	TRPV1 PAM	CtBP-E1A blk	Six1-Eya2 inh	D2 potentiator	Sfp PPTase inh	D2 ag	PINK1 expr mod
O=C(Nc1cc(=O)[nH]c2nc(-c3ccccc3)nn12)c1ccccc1Cl	28.9	-1.8	-8.9	-6.5	6.9%	-1.2	0.4%
C(/C=C/c1ccccc1)=N/N1CCN(c2ccccc2)CC1	12.6	-11.3	-5.8	-8.2	4.3%	-0.9	11.0%[38.3 µM]
CC(C)(C)NC(=O)C(c1cccs1)N(Cc1ccco1)C(=O)c1csnn1 (stereo unspecified)	-1.5	-4.8	-1.2	-4.1	-8.9%	-2.5	0.9%
CN1CCN(CCCCOc2ccccc2-c2ccccc2)CC1	-0.4	-2.8	-2.0	-18.2	56.2µM*	-6.3	-2.4%
N=C1C(c2nc3ccccc3s2)=C(O)CN1Cc1ccco1	-2.0	8.6	-10.2	-8.1	-5.2%	-1.3	16.8%[38.3 µM]
CCOC(=O)N1CCC(NC(=O)C2CCN(c3nc(-c4ccc(OC)cc4)no3)CC2)CC1	-11.2	7.0	4.0	-1.0	13.3%	-1.0	2.6%
N#Cc1ccc(N2C(=O)[C@@H]3C(C(=O)c4cnccn4)=NN[C@@H]3C2=O)cc1	x	-9.9	-3.8	-10.0	17.8µM*	-5.1	-0.3%
CC(Sc1nnc(C2CC2)n1C1CC1)C(=O)Nc1ccccc1C#N (stereo unspecified)	9.4	9.4	-12.1	17.0	x	0.0	2.1%
Cc1ccc(/C=N/NC(=O)C(C)Oc2ccccc2[N+](=O)[O-])s1 (stereo unspecified)	0.7	7.6	-0.6	-16.7	6.2%	0.6	-2.4%

Source: PubChem BioAssay
